UCH37 inh = human UCH37 deubiquitinating enzyme inhibition. Q9Y5K5. purified proteasome/UCH37, Ub-AMC cleavage fluorescence. inhibition, % (test concentration not listed). actives 0.33% (n = 330,000);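 active means mean of two replicates above 20%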;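 further: 0% = compound-free wells with enzyme and 100% = wells lacking proteasome; stock transfer was 100 nL into about 20 µL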
Target sequence (Q9Y5K5 whole entry, looked up): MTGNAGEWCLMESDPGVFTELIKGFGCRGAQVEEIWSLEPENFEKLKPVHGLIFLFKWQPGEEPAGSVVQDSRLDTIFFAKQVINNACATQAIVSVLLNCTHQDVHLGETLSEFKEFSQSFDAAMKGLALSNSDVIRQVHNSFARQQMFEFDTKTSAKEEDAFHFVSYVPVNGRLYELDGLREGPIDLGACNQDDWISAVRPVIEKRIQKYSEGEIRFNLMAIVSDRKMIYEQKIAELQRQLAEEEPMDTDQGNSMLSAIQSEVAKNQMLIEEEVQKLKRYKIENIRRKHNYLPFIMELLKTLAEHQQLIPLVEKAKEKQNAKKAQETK
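System: Proteasome-associated human UCH37 deubiquitinase; Input: 0.15 nM proteasome in added enzyme buffer; Also added: Ub-AMC substrate from 1 µM stock; Incubation: 30 min compound-proteasome preincubation then 25 min substrate reaction, room temperature; Detection: fluorescence, ex 355 nm, em 460 nm; Read-out: % inhibition of Ub-AMC cleavage fluorescence; Benchmarks: no-proteasome and no-compound wells.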
Ecoli growth = blocks Escherichia coli growth; OD600, 23 h; stronger effect = lower value; OD600 absorbance (no concentration beside the values); actives 0.21% (n = 330,000); AID 1053175;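 active means OD600 absorbance below the run mean of sample wells minus 3.6 SD, in any replicate, cut at about 0.56 in these data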;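 further: stock transfer was 300 nL into about 60 µL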
An asterisk follows results filed as active; & = joins results of further samples.

SMILES	UCH37 inh	Ecoli growth
O=S(=O)(N=C(c1ccccc1F)N1CCCCC1)c1ccccc1	4.0	0.68
COc1ccc2nc(N=Cc3cccc(OC)c3O)sc2c1	1.3	0.69
Cc1c(C(=O)NN=CC(C)C)[nH]c2ccc([N+](=O)[O-])cc12	7.7	0.67
CCON=CC(=O)Nc1ccc(F)cc1F	5.1	0.71
COc1ccccc1C=NOCc1cc(C(C)=O)ccc1OC	5.1	0.69
COc1cccc2cc(C(C)=NNC(=O)c3ccco3)oc12	4.2	0.65
Nc1nnnn1N=Cc1ccccc1C(F)(F)F	0.9	0.8
O=[N+]([O-])c1cc(C=NNc2nc(N3CCCCC3)nc(N3CCCCC3)n2)ccc1O	10	0.72
COc1ccc(NC(=O)CC(C)=NNC(=O)CCc2ccccc2)c(OC)c1	0.9	0.7
Cc1cc(SCC(=O)NN=Cc2ccc(C(=O)O)cc2)nc2ccccc12	7.9	0.69
Cc1cc(NN=Cc2ccc(O)cc2)c2cccc(C)c2n1	-12	0.6
Cc1cc(C(=O)NN=Cc2ccccc2Br)no1	3.1	0.69
CC(=NN1CCN(c2ccc(Cl)cc2)CC1)c1cccs1	0.2	0.7
COc1cc(C=NNc2ccccc2C(F)(F)F)ccc1O	3.0	0.66
CCC(=NNc1ccnc2cc(Cl)ccc12)c1ccc(O)cc1	1.6	0.6
COc1ccc(C=NN2C(=O)CSC2=S)cc1	8.7	0.63
O=C(Cn1nnc(-c2ccccc2)n1)NN=Cc1cc([N+](=O)[O-])ccc1O	8.6	0.66
O=C(Cn1cnc([N+](=O)[O-])n1)NN=Cc1cccc2ccccc12	2.2	0.69
Cc1nn(-c2ccc(F)cc2)c(Cl)c1C=NNC(=O)c1cccs1	-9.4	0.7
CC(=NNc1nccnc1Cl)c1ccc(O)c(C)c1	9.6	0.69
CCOc1nc(-c2ccc(C)cc2)ccc1-c1noc(-c2cccnc2)n1	-34	0.64
O=C(NN=CC1C(c2ccccc2)C1(Cl)Cl)c1cccc(Br)c1 (stereo not drawn)	-5.7	0.73
Clc1ccc(-c2csc(NN=Cc3cccnc3)n2)cc1	7.3	0.67
Cc1nc2ccccn2c1C(=O)NN=Cc1ccc(F)cc1	5.6	0.67
O=[N+]([O-])c1cccc(C=NNS(=O)(=O)c2ccccc2)c1	3.9	0.65
(continued)
SMILES	UCH37 inh	Ecoli growth
COc1ccc(C=NNC(=O)c2cccc(COCC(F)(F)C(F)F)c2)cc1	5.9	0.67
COc1cc(C=NNC(=O)Cn2nc([N+](=O)[O-])cc2C)cc(Br)c1OCc1ccccc1	4.6	0.77
CN(C)c1ccc(C=NNC(=O)c2ccc(NC(=O)c3ccccc3)cc2)cc1	-181	0.67
CCOC(=O)CC(C)=NNC(=O)c1cccs1	0.7	0.68
Cc1cccc(OCC(=O)NCC(=O)NN=Cc2ccc(N(C)C)cc2)c1	-46	0.72
CC(=NNC(=O)c1cn(-c2cccc(C)n2)cn1)c1ccc(C)cc1	-0.6	0.77
CSc1nnc(C(C)(C)C)c(=O)n1N=Cc1ccccc1	2.1	0.71
CSCC[C@H](NC(=O)OC(C)(C)C)C(=O)NN=Cc1cccc2cccnc12	-1.8	0.67
COc1cc(C=Nn2cnnc2)ccc1OC(=O)c1ccncc1	3.2	0.71
COc1ccc(C=NNc2ccccn2)c(OC)c1	0.3	0.67
O=C(CCCCCNC(=O)c1ccccc1Cl)NN=Cc1ccco1	3.2	0.71
O=[N+]([O-])c1cccc(NN=Cc2ccc(N3CCOCC3)cc2)c1	6.3	0.67
Cc1cc(C=NNC(=O)c2ccncc2)c(C)n1-c1cccc(C(F)(F)F)c1	3.3	0.67
Cc1ccc(C=Nn2c(C)nnc2C)cc1	0.2	0.69
CCc1ccc(NC(=O)C(=O)NN=C(C)CC(=O)Nc2ccc(OC)cc2)cc1	4.8	0.68
Cc1ccc(C=NNc2ccc(Cl)c(C(=O)O)c2)s1	11	0.6
Cc1ccc(S(=O)(=O)Oc2ccccc2C=NNc2ccc(C(=O)O)cc2)cc1	3.6	0.7
COc1ccc(C=NNC(=O)c2nnn(-c3nonc3N)c2-c2cccs2)cc1OC	-194	0.61
COc1cc(C=NN=C(N)c2nonc2N)cc(OC)c1OC	3.6	0.69
O=C(NCCN1CCOCC1)c1cccn2c(=O)c3c4c(sc3nc12)CCCC4	7.1	0.64
C=CCOc1ccc(C=NNc2ccccn2)cc1OC	3.1	0.67
O=C(CON=C1CCCc2nonc21)Nc1ccccc1Cl	-1.2	0.7
O=C(NN=Cc1cccc([N+](=O)[O-])c1)c1ccc(Br)cc1	-0.3	0.68
CCOc1ccccc1C=NNc1nc(C)cc(=O)[nH]1	6.7	0.64
O=C(O)c1ccc(C=NN2CCN(c3ccccc3)CC2)cc1	1.5	0.67
More compounds
SMILES	UCH37 inh	Ecoli growth
COC(=O)C(C=NOCc1ccc([N+](=O)[O-])cc1)NC(=O)c1cccc(Cl)c1 (stereo not drawn)	1.8	0.74
CC(=NNC(=O)c1ccco1)c1cc(Cl)sc1Cl	6.3	0.63
CC(=NNC(=O)c1nnn(-c2nonc2N)c1CSc1ccc(C)cc1)c1ccco1	-1.8	0.7
CC(/C=C/c1ccccc1)=NNC(=O)CNC(=O)c1ccc2c(c1)OCO2	-2.0	0.78
Cc1cn(-c2ccccc2)c(C)c1C=NNc1nc(N2CCOCC2)nc(N2CCOCC2)n1	4.4	0.7
CC1(C)CC(=O)CC(=NNC(=S)NCc2ccccc2)C1	4.8	0.68
CN(C)C=NS(=O)(=O)c1cccn1-c1ncc(C(F)(F)F)cc1Cl	2.5	0.65
COc1cc(C=NNC(=O)c2ccncc2)ccc1O	6.9&9.6	0.69&0.69
COC(=O)C(=NNc1ccc(Cl)cc1)Sc1nnc(-c2ccc(OC)cc2)n1C	1.6	0.71
Cc1cccc(C=NNC(=O)c2cc(C)nc3ccccc23)n1	-0.9	0.69
Cc1cc(NC(=O)CON=Cc2ccc3c(c2)OCO3)ccc1Br	5.2	0.71
COc1cc(C=NNC(=O)c2cccc(S(=O)(=O)N3CCOCC3)c2)cc(OC)c1O	6.2	0.65
Cn1cccc1C=Nn1c(-c2ccco2)n[nH]c1=S	4.9	0.72
Cc1ccc(S(=O)(=O)NN=Cc2cccc3c2OCCO3)cc1	0.2	0.72
CCN(CC)S(=O)(=O)c1cccc(-c2n[nH]c(=S)n2N=Cc2ccc(C(=O)OC)cc2)c1	-1.3	0.64
O=C(NN=Cc1ccncc1)c1nc2ccccc2c(=O)[nH]1	5.8	0.68
CN(C)/C=C(\C#N)C(=O)NN=C(CC(=O)C(F)(F)F)c1ccco1	1.9	0.7
C/C(C=NNC(=O)c1nnn(-c2nonc2N)c1C)=C\c1ccccc1	-11	0.69
COc1ccc(-n2nc3cc(C)c(NC(=O)CC(C)C)cc3n2)cc1	-65	0.65
O=C(Cc1ccccc1)NN=C/C=C/c1ccccc1[N+](=O)[O-]	4.7	0.67
Cc1ccc(-n2nc3c(n2)C(=NO)CCC3=NO)cc1	-2.4	0.69
COc1ccc(NC(=O)C(=O)NN=Cc2cc(C)n(-c3cccc(Cl)c3Cl)c2C)c(OC)c1	-12	0.68
COc1cc(C(=O)NN=C2CCS(=O)(=O)c3ccc(F)cc32)cc(OC)c1OC	5.9	0.7
O=[N+]([O-])c1ccc(-c2nn(-c3ccccc3)cc2C=Nn2c(-c3cccs3)n[nH]c2=S)cc1	6.1	0.69
O=[N+]([O-])c1ccc(C=Nn2c(COc3ccccc3)n[nH]c2=S)cc1	6.1	0.73
Remaining list, next part:
SMILES	UCH37 inh	Ecoli growth
COc1ccc(N(CC(=O)NN=Cc2ccc3c(c2)OCO3)S(=O)(=O)c2ccccc2)cc1	5.6	0.7
N#CCCn1cc(C=NO)c(-c2ccc(Cl)cc2)n1	0.9	0.71
Cc1ccc(C=NNc2cccc3cccnc23)c(O)c1	-4.3	0.7
CN(C)C=Nc1c(C#N)cnn1-c1ncnc2sc(-c3ccccc3)cc12	-8.1	0.72
CC(C)N=c1scc(-c2cccs2)n1N=Cc1ccc(O)c(O)c1O	11	0.65
COc1cc(C=Nn2nnnc2N)ccc1OCC(N)=O	-3.1	0.68
Cn1nc(C(F)(F)F)c(C=NOC(=O)c2ccccc2)c1SCc1ccccc1Cl	3.0	0.73
Cc1ccc(C(=O)ON=C2CC3CCC2(C)C3(C)C)cc1 (stereo not drawn)	3.0	0.69
O=C(O)c1cc(C=NO)ccc1OCc1ccccc1	0.2	0.73
CC(CCC(C)C)=NNc1ccc(S(N)(=O)=O)cc1[N+](=O)[O-]	5.5	0.64
CC(=NNC(=O)CN1CCOCC1)C(C)(C)C	4.4	0.71
Cc1ccc(-c2cc(C(=O)NN=C/C=C/c3ccco3)c3ccccc3n2)cc1C	1.4	0.73
CC(C)c1ccc2[nH]c3c(c2c1)CCCC3=NNC(=O)c1ccncc1	4.8	0.72
COc1ccc(C=NNC(=S)Nc2ccccc2[N+](=O)[O-])cc1O	4.5	0.69
Cc1ccc(OCC(=O)NN=Cc2ccncc2)c(C)c1	2.4	0.64
COc1ccc(NC(C)C(=O)NN=Cc2cc(Br)ccc2OC)cc1 (stereo not drawn)	1.0	0.72
O=C1CCCC(=NNC(=O)c2cc(NS(=O)(=O)c3cccs3)cc(NS(=O)(=O)c3cccs3)c2)C1	2.4	0.67
Oc1ccc(C=NN(Cc2ccccc2)c2ccccc2)c(O)c1O	2.2	0.75
Cc1ccc(-c2ccc(C=NNC(=O)C3C(=O)NCC3c3ccccc3)o2)cc1Cl (stereo not drawn)	-2.9	0.69
Cc1ccc(S(=O)(=O)N(C)Cc2ccc(C(=O)NN=Cc3ccc(OC(F)F)cc3OC(F)F)cc2)cc1	3.5	0.77
CCn1nc(C)c(C=NNC(=O)Cn2nccc2C)c1C	2.3	0.66
CC(=NNC(=O)CN1CCN(S(=O)(=O)c2ccc(C)cc2)CC1)c1ccncc1	0.5	0.67
O=C(NN=Cc1ccc(OC(=O)c2ccccc2)c([N+](=O)[O-])c1)c1ccc(O)cc1	11	0.73
Cc1cc(C(=O)NN=C/C=C/c2cccc([N+](=O)[O-])c2)n[nH]1	5.1	0.61
CC(=O)Nc1sc(NN=Cc2ccccc2)nc1-c1cccs1	-0.6	0.72

One compound at a time, from the list above. Values in the order: UCH37 inh | Ecoli growth
Listed for Cc1cc(C(=O)NN=C/C=C/c2cccc([N+](=O)[O-])c2)n[nH]1 : 5.1 | 0.61
Listed for O=C1CCCC(=NNC(=O)c2cc(NS(=O)(=O)c3cccs3)cc(NS(=O)(=O)c3cccs3)c2)C1 : 2.4 | 0.67
Listed for Cc1ccc(C(=O)ON=C2CC3CCC2(C)C3(C)C)cc1 (stereo not drawn) : 3.0 | 0.69
Listed for CC(C)N=c1scc(-c2cccs2)n1N=Cc1ccc(O)c(O)c1O : 11 | 0.65
Listed for Cc1ccc(S(=O)(=O)N(C)Cc2ccc(C(=O)NN=Cc3ccc(OC(F)F)cc3OC(F)F)cc2)cc1 : 3.5 | 0.77

Returning to the listing, repeating the 5 entries before the break.
SMILES	UCH37 inh	Ecoli growth
CCn1nc(C)c(C=NNC(=O)Cn2nccc2C)c1C	2.3	0.66
CC(=NNC(=O)CN1CCN(S(=O)(=O)c2ccc(C)cc2)CC1)c1ccncc1	0.5	0.67
O=C(NN=Cc1ccc(OC(=O)c2ccccc2)c([N+](=O)[O-])c1)c1ccc(O)cc1	11	0.73
Cc1cc(C(=O)NN=C/C=C/c2cccc([N+](=O)[O-])c2)n[nH]1	5.1	0.61
CC(=O)Nc1sc(NN=Cc2ccccc2)nc1-c1cccs1	-0.6	0.72
CC(=NNC(=O)c1ccncc1)c1ccc(N2CCOCC2)cc1	8.5	0.68
CC(=NNC(=O)c1c(Cl)cnn1C)c1cccc(NC(=O)C(C)C)c1	4.3	0.66
CC(=NNc1nc(C)cc(-c2ccccc2)n1)c1ccc(F)cc1	2.7	0.67
O=C1N/C(=N\N=Cc2ccco2)SC1Cc1ccc(F)cc1 (stereo not drawn)	6.7	0.7
COc1cc(C=NNC(=O)c2ccc(Cl)c(S(N)(=O)=O)c2)ccc1OCC(N)=O	-12	0.64
Cc1ccc2occ(C=NNC(=O)[C@@H](N)Cc3ccccc3)c(=O)c2c1	-34	0.63
CCOC(=O)C1=C(N)n2c(sc(=Cc3ccco3)c2=O)=C(C(=O)OC(C)C)C1c1ccco1 (stereo not drawn)	8.8	0.74
O=C(O)c1ccc(C=NNC(=S)NCc2ccccc2)cc1	8.0	0.65
CN(C)C=Nc1sc2c(c1C#N)CCCC2	20	0.69
CN(C)c1ccc(C=NN(CCC(=O)NC(C)(C)C)C2=NS(=O)(=O)c3ccccc32)cc1	1.8	0.68
COc1cccc(C=NNC(=O)c2ccc3nc[nH]c3c2)c1O	0.4	0.7
O=C(O)c1ccc(C=NNc2ccc(S(=O)(=O)N3CCCC3)cc2[N+](=O)[O-])cc1	14	0.69
CCOC(=O)c1c(C)n(-c2ccc(OC)cc2)c2c(CC(C)=NO)c(Br)c(OC)c(O)c12	3.9	0.8
COc1cc(C=NNC(=O)CCc2c(C)n[nH]c2C)cc(OC)c1OC	-0.6	0.71
Cc1ccc(-c2ccc(C=NO)o2)cc1[N+](=O)[O-]	4.0	0.69
NN=C1CCCc2c1[nH]c1ccc([N+](=O)[O-])cc21	10	0.69
O=C(CSc1ccccn1)NN=Cc1c[nH]c2ccccc12	10	0.7
CC(=NOC(=O)c1ccc(F)cc1)c1sc(-c2ccccc2)nc1C	-5.7	0.75
O=C(NN=Cc1ccco1)c1cc(-c2ccccc2)nc2ccccc12	1.5	0.65
O=[N+]([O-])c1cccc(C=Nn2c(COc3ccccc3)n[nH]c2=S)c1	4.7	0.68
CC(C)C=NNC(=O)c1cc(Br)ccc1O	-80	0.63

Source: PubChem BioAssay (ICCB-Longwood Screening Facility, Harvard Medical School)

This is a subset (hit frequency here may not be typical).
